LANA-H2A inh – blocks KSHV LANA binding to histone H2A/H2B; cell-free LANA-H2A/H2B peptide, fluorescence polarization; Q9QR71; hit rate 0.6% among 320,000; AID 2629; inhibition, % (no concentration beside the values); in the data active = inhibition mostly above about 10%, no sharp cut-off; inactive = mostly below about 6.7%;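 also: stock transfer was 7.5 nL into about 10 µL; 0% = median of vehicle wells and 100% = median of positive control wells; one replicate is shown; the record names a cut of 25% in any replicate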
Calb FLC – affects C. albicans growth with fluconazole; hit rate 0.57% among 300,000; growth inhibition, % (test concentration not listed); C. albicans CaCi-2 (fluconazole-resistant clinical isolate) + fluconazole, Alamar Blue growth, 48 h; AID 1979;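 active = most replicates above 75%; inconclusive = exactly half above 75%; inactive = most below 75%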;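 also: all wells also contain fluconazole at 8 µg/ml as a sub-toxic cotreatment; 0% = median of DMSO wells and 100% = median of geldanamycin control wells; wells of about 8 µL received 7.5 nL stock; the first replicate is given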
B2AR ag – activates human beta-2 adrenergic receptor causing internalization; P07550; Am2.2-beta2AR cells, FAP receptor internalization, flow cytometry; reference of the scale not given here; response, % (concentration not given with the values); hit rate 0.43% among 340,000;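 active = response above a set limit, near 3 SD of response in nonfluorescent compounds, cut at about 42% in these data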;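 also: stock transfer was 100 nL into about 11 µL; a reference agonist was the positive control; negative values mostly stem from fluorescent compounds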
Target sequence (P07550 whole entry, looked up): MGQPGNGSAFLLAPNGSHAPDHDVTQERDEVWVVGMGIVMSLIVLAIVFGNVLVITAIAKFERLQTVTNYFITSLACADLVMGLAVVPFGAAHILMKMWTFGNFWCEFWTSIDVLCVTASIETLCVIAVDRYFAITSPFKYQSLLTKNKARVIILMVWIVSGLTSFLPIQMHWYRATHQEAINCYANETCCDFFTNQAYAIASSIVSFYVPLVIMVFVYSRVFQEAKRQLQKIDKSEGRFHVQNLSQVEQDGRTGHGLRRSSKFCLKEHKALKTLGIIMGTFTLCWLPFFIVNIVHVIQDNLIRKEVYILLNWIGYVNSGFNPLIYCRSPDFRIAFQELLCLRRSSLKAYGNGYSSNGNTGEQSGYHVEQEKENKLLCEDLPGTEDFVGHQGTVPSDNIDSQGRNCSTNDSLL
Beta cell apopt – beta cell apoptosis inhibition; INS-1E cytokine-induced death, ATP luminescence, 48 h; percent of positive-control rescue, neutral wells zero; protection from apoptosis, % (concentration not given with the values); hit rate 0.8% among 300,000;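 active = all replicates at 75% or more, or half of them and the mean; inconclusive = half reach 75% but not the mean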;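 also: 0% = cytokine-treated negative control wells and 100% = positive control rescue; higher means more ATP so stronger rescue from cytokine killing; wells of about 40 µL received 100 nL stock; the first replicate is given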
A1 inh – inhibitors of the anti-apoptotic protein A1, read as caspase activation. MEF A1-2A-BIM cells, Caspase-Glo 3/7 luminescence, 3 h; percent of clofoctol response, vehicle zero. hit rate 0.066% among 330,000. caspase activation, % (concentration not given with the values);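 active = over half of replicate activation scores above 10%, or exactly half above 10 with the replicate mean above 10; inconclusive = replicate mean below 10 yet half the replicates above 10; inactive = over half of replicates below 10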;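 also: wells of about 30 µL received 50 nL stock; many hits fall short of the cut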
rRNA inh HTS – inhibitors of bacterial rRNA selective over humanized ribosomes; E. coli WT GFP vs humanized-ribosome RFP mutants, fluorescence, 24 h; hits give low values; DMSO median 0, no signal -100; GFP signal change (wild-type ribosome), % (concentration not given with the values); hit rate 1.6% among 350,000;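 active = significant combined selectivity score with lowered wild-type GFP, culture density cut under 30%, mutant RFP and density less affected; inactive = any of these conditions unmet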; also: one replicate is shown; some compounds called inactive have numbers as strong as hits
T cruzi inh – T. cruzi replication inhibition; hit rate 1.4% among 300,000; inhibition, % (no concentration beside the values); T. cruzi beta-gal in NIH3T3, luminescence, 90 h;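 active = mean inhibition across valid replicates above about 55%, limit read from the data; inconclusive = mean below that limit but half or more replicates reach it; inactive = mean below it, under half of replicates reach it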;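 also: signal also drops with host cell toxicity which is not excluded here; 0% = plate median of DMSO wells and 100% = zero luminescence signal; higher percent means less beta-gal luminescence so fewer parasites; stock transfer was 50 nL into about 50 µL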
ALR inh – blocks human ALR sulfhydryl oxidase activity. P55789. purified ALR, DTT oxidation, H2O2 HRP-luminol luminescence. inhibition, % (test concentration not listed). hit rate 3.8% among 290,000. AID 485317;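 active = mean and each replicate at 75% or more; inconclusive = only one of the two met; inactive = neither met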;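 also: stock transfer was 7.5 nL into about 7.5 µL; 0% = neutral wells and 100% = wells with inactivated enzyme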
Target sequence (P55789 whole entry, looked up): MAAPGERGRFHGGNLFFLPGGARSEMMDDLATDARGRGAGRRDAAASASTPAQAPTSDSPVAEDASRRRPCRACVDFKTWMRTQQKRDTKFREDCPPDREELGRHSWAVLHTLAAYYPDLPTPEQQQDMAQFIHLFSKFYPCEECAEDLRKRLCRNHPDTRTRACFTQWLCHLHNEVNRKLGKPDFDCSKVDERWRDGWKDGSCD
rRNA inh HTS OD600 – second read-out of rRNA inh HTS, no call of its own (marks repeat the call); OD600 change, %; measured here: OD600 growth;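 optical density of the mix in the first replicate; 0 = DMSO median and -100 = no signal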
rRNA inh HTS RFP – recorded beside rRNA inh HTS, whose call it bears; RFP signal change, %; measured here: RFP humanized mutant strains;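 first replicate; 0 = DMSO median and -100 = no signal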
Numbers without * were called inactive; ? = inconclusive; . = not tested or not shown. These rows are one share of the data; count on the stated rates, not on these rows.

SMILES	LANA-H2A inh	Calb FLC	B2AR ag	Beta cell apopt	A1 inh	rRNA inh HTS	rRNA inh HTS OD600	rRNA inh HTS RFP	T cruzi inh	ALR inh
CCCC1OC23CCCCC2C(C#N)(C(=N)O3)C1(C#N)C#N (configuration not stated)	-0.7	-9	7	-8	0.2	.	.	.	-19	-2
O=C(NC1CCCCC1)C(=O)N(Cc1cccnc1)C(C(=O)NCc1ccco1)c1ccccc1 (configuration not stated)	-10	-15	.	-2	0.0	.	.	.	9	-1
C=CCc1cc(Cl)ccc1OCCN(C)C	1.5	-15	2	-1	0.2	3	8	-0.5	57*	0
COC(=O)c1sccc1NC(=S)Nc1ccc(F)cc1	2.4	-3	-2	-7	0.6	.	.	.	-11	-3
CCOC(=O)C1CCCN(S(=O)(=O)c2nc3nc(C)cc(C)n3n2)C1 (configuration not stated)	1.4	-23	3	-3	0.8	0	-1	-0.2	.	-11
O=C(Nc1nccs1)C1CC(=O)N(c2ccccc2Cl)C1 (configuration not stated)	0.6	-9	-2	-8	0.5	.	.	.	-12	-1
CCNC(=S)N(CCc1c(C)[nH]c2ccc(C)cc12)Cc1cccs1	-1.2	?	-9	-2	-0.8	-25	-36	-2.1	40	0
Cc1ccc(-c2cc(N)n(-c3ccc(C)cc3)n2)cc1	1.6	-3	-6	-1	-0.7	.	.	.	18	-1
CCN(CC)CCNC(=O)Cn1nc(-c2ccc(C)cc2)ccc1=O	2.8	-7	-1	-6	-0.4	.	.	.	-6	0
CC(C)C(C)NC(=O)CSc1nnc(-c2c[nH]c3ccccc23)o1 (configuration not stated)	-0.3	2	5	6	0.6	-2	7	2.3	-4	.
O=C(Nc1ccc(Cl)cc1)NC1CCCCNC1=O (configuration not stated)	-2.8	-8	2	-4	0.0	13	4	0.2	2	-8
CCCCNC(=O)Cn1c2c(c(-c3ccccc3Cl)cc1=O)CCC2	-2.2	-5	7	-3	0.7	-5	-4	13	5	.
CCOC(=O)c1c(-c2ccccc2)oc2ccc(OCC(O)CNCCN(C)C)cc12 (configuration not stated)	-0.4	-24	21	19	0.0	-55	-78	-26	79*	-9
CC(C)CNC(=O)c1cc2nc(C3CC3)cc(C(F)(F)F)n2n1	0.7	-8	7	-7	0.6	.	.	.	5	-9
CC1CCCC(C)N1C(=O)c1cc(-c2ccco2)on1 (configuration not stated)	0.8	0	5	1	-0.4	14	7	8.8	-5	.
CCOC(=O)CC(=O)CSc1ccc2nnc(-c3cccc(F)c3)n2n1	3.4	9	6	-1	-1.1	.	.	.	-12	28
CC(C)n1c(SCC(=O)Nc2ccccc2)nc2c1c(=O)[nH]c(=O)n2C	-0.1	0	-2	-9	0.0	-9	-11	0.7	19	-14
Cc1cc(C)nc(N/N=C/C2=C(O)CC(c3ccc(F)cc3)CC2=O)n1 (configuration not stated)	-3.7	-9	8	66	-0.8	4	4	-0.2	10	-11
CC1(c2ccc(Cl)cc2)NC(=O)N(CC(=O)N2CCCC2)C1=O (configuration not stated)	-6.1	22	0	-9	1.0	.	.	.	-7	-15
COC(=O)[C@]12C(=O)NC[C@H](CN1c1ccc(C(F)(F)F)cc1)N2C	5.3	.	-13	1	0.7	3	4	1.7	.	-5
COc1cccc(C2CC(=O)C3=C(C2)Nc2ccccc2N(C(=O)CCC(=O)O)C3c2ccc(F)cc2)c1 (configuration not stated)	-0.2	3	5	-4	0.1	0	3	-5.3	-6	2
Cc1ccc(Cn2ncn(-c3ccccc3)c2=O)cc1	-4.9	3	-6	0	-1.8	20	14	1.6	6	-14
Cc1ccc(NS(=O)(=O)c2cccc(C(=O)NCC(c3cccs3)N(C)C)c2)cc1 (configuration not stated)	2.6	19	-6	2	-0.6	-26	-29	-3.4	8	.
CCCc1cc(C(=O)N2CCCC(Cc3ccccc3C)(C(=O)OCC)C2)no1 (configuration not stated)	-1.8	-1	-3	3	0.2	-3	-1	1.2	6	5
Cc1ccc(Nc2ccc(C(=O)NCCc3ccccc3)cn2)cc1	-6.1	9	-4	-2	-2.2	-4	9	-2.6	-7	-3

Next part (2 carried over from the part before).
SMILES	LANA-H2A inh	Calb FLC	B2AR ag	Beta cell apopt	A1 inh	rRNA inh HTS	rRNA inh HTS OD600	rRNA inh HTS RFP	T cruzi inh	ALR inh
CCCc1cc(C(=O)N2CCCC(Cc3ccccc3C)(C(=O)OCC)C2)no1 (configuration not stated)	-1.8	-1	-3	3	0.2	-3	-1	1.2	6	5
Cc1ccc(Nc2ccc(C(=O)NCCc3ccccc3)cn2)cc1	-6.1	9	-4	-2	-2.2	-4	9	-2.6	-7	-3
CCC(=O)N/C(N)=N/c1nc2ccccc2o1	0.0	4	1	1	-1.1	-9	-15	-0.9	-2	-6
O=C(NNS(=O)(=O)c1ccccc1)c1ccc(S(=O)(=O)N2CCCCC2)cc1	-3.3	1	4	-6	0.5	.	.	.	5	30
Cn1c(CCN2CCCCCC2)nc2cc(NC(=O)Nc3ccccc3)ccc21	-4.1	8	-2	-5	-2.8	.	.	.	6	.
O=C(/C=C/c1ccccc1)NC(=S)Nc1ncccn1	-6.9	9	-3	-4	-0.3	2	2	-0.5	-14	.
Cn1nc(NC(=O)C(C)(C)C)c2c(F)cccc21	-3.1	19	5	-3	0.5	7	11	-1.0	-13	-8
COC(=O)C1Cc2ccccc2CN1S(=O)(=O)c1ccc(F)cc1 (configuration not stated)	7.4	2	2	.	0.8	-10	-13	-0.2	-9	-14
Cn1c(-c2sc(=S)n(-c3ccccc3)c2N)nc2ccccc21	3.3	-3	-1	-5	-1.8	.	.	.	-5	-5
O=[N+]([O-])c1cccnc1NCc1cccs1	2.1	-14	-9	-7	0.9	4	-9	4.4	0	.
Cc1cc(C)c2c(-n3cccc3)c(NC(=O)OC(C)C)sc2n1	-4.2	2	-17	2	0.5	.	.	.	.	0
CC(C)(C)n1nc2c(c1NC(=O)c1ccc(Br)cc1)CS(=O)C2 (configuration not stated)	2.7	-3	9	-3	0.3	8	-2	-0.6	-1	-4
CCOc1ccc(NC(=O)CSc2nnc(-c3ccco3)n2N)cc1	0.1	-8	-11	-3	-0.5	0	5	-2.0	2	20
CN(C(=O)CSc1nnc(-c2ccc3c(c2)OCO3)o1)C1CCS(=O)(=O)C1 (configuration not stated)	-0.7	.	-6	-4	-0.4	10	6	1.7	.	-1
CC1Cc2cc(S(=O)(=O)N3CCN(c4cccc(Cl)c4)CC3)ccc2N1C(=O)C1CC1 (configuration not stated)	0.1	-2	-15	13	0.9	-26*	6.1*	0.9*	25	-6
COc1ccccc1C(=O)Nc1c(C(=O)N2CCN(C)CC2)oc2ccccc12	-6.1	23	-14	-4	0.8	-1	-4	3.1	12	-14
COc1ccc(CCNC(=O)C2CCC(=O)N2S(=O)(=O)c2ccc(C)cc2)cc1 (configuration not stated)	-2.1	-13	-3	.	0.0	-1	6	1.8	-6	-9
CCC(C)C(NS(=O)(=O)c1ccc(C)cc1)C(=O)O (configuration not stated)	-1.4	-10	3	4	1.2	11	9	0.3	0	-5
CCOC(=O)c1ccc(N2C(=O)C3CC=CCC3C2=O)cc1 (configuration not stated)	0.1	-5	-9	-10	-0.3	5	5	6.2	3	-4
CCc1cccc(NC(=O)Cn2c(-c3ccccc3)cc(C(C)=O)c2C)c1	2.3	-28	-6	1	-0.5	.	.	.	22	.
CC1CCCC(C)N1C(=S)NCc1ccco1 (configuration not stated)	-3.2	3	2	-4	0.4	.	.	.	-15	-4
CCCCNC(=O)C(CC)(ONc1ccccc1C(F)(F)F)c1ccccc1OC (configuration not stated)	-7.2	.	3	-4	1.1	9	14	0.6	.	-16
COc1cc(/C=C2/C(=O)NN(c3ccc(Cl)cc3)C2=O)cc(OC)c1O	0.6	90*	1	-6	0.2	-1	-2	-4.2	6	19
CC(C)CCCN1C(N(C)C)=NC[C@@H]1Cc1ccccc1	-0.6	.	-6	-6	-0.1	-1	-8	4.1	.	2
CC(=O)c1cccc(CN2CCC(CO)(CCCc3ccccc3)CC2)c1	3.5	-13	-12	-3	-0.6	5	-6	-4.8	19	-6
COC(=O)c1sccc1NC(=O)c1cc(-c2cc(C)ccc2C)nc2ccccc12	3.3	-2	7	32	0.3	7	19	5.0	29	-1
O=C(COC(=O)c1cnc(Cl)c(Cl)c1)Nc1ccc(S(=O)(=O)N2CCCC2)cc1	0.2	-8	12	2	0.7	-13	-8	2.8	-9	0
SMILES	LANA-H2A inh	Calb FLC	B2AR ag	Beta cell apopt	A1 inh	rRNA inh HTS	rRNA inh HTS OD600	rRNA inh HTS RFP	T cruzi inh	ALR inh
COc1ccc(C)c(NC(=O)C2CC(=O)NC3=C2C(=O)CCC3)c1 (configuration not stated)	-4.7	0	-2	-9	0.0	8	3	-2.0	-10	-5
O=C(O)Cn1nnc(-c2ccc(OCc3ccccc3)cc2)n1	-2.7	3	-8	-1	0.3	5	-2	1.1	-20	.
O=C(NCc1ccccc1)c1onc(CSc2ccccn2)c1C(=O)NCc1ccccc1	9.6	-6	1	-3	0.6	-4	-5	5.1	12	-2
CC1(C)CC(=O)C2=C(C1)NCN(CCCN1CCOCC1)C2	7.9	10	12	-9	-0.2	.	.	.	-5	-13
CC1CCN(C(=O)c2ncn(Cc3ccccc3)c2C(=O)N2CCC(C)CC2)CC1	-5.0	.	-8	2	0.2	-11	-12	18	.	-2
O=C(NCCO)c1scc2c1OCCO2	7.3	4	5	-7	1.2	.	.	.	0	-3
Cc1nn(C)cc1/C=N/NC(=O)C(C)(C)Oc1ccc(Cl)cc1	5.2	-3	6	5	-1.3	.	.	.	-2	-5
CN(C)c1ccc(N2C(=NC(=O)COc3ccccc3)SC3CS(=O)(=O)CC32)cc1 (configuration not stated)	-5.3	.	-4	-2	0.1	8	15	-2.6	4	39
O=C(CNc1cccc(S(=O)(=O)N2CCOCC2)c1)Nc1ccccc1F	-0.2	-7	5	2	-1.0	8	7	1.8	-12	0
CCOC(=O)C1(Cc2cccc(OC)c2)CCN(Cc2cc(OC)ccc2OC)CC1	2.4	5	0	3	0.1	-17	-17	-4.3	-1	0
CCOc1ccccc1C1C(C#N)=C(N)SC(N)=C1C#N	-1.1	12	8	-1	0.7	.	.	.	-2	13
[O-][n+]1ccccc1SCc1ccccc1	-3.8	1	-3	3	-0.3	3	1	-3.5	-21	-9
COC(=O)CCCC1=CC2=C(c3ccccc3)C(=O)C(C)(OC(=O)C3CCCC3)C(=O)C2=CN1c1ccccc1 (configuration not stated)	-1.8	29	-5	-7	-0.9	2	6	9.9	-25	.
COc1ccc(-n2ncc3c(NCCCn4ccnc4)ncnc32)cc1	-0.8	6	-17	-8	-0.1	-8	4	-6.0	-26	3
COc1cc(OC)c(C(=O)O/N=C(\N)c2cccc(C)c2)cc1OC	-0.3	3	3	-2	-6.0	4	4	6.1	17	-9
COc1ccccc1C/C(N)=N/OC(=O)c1cccs1	2.2	-19	4	.	1.0	-25*	8.6*	8.2*	4	-6
CON/C=C(\C=Nc1ccc(Cl)cc1)c1ncc(C(F)(F)F)cc1Cl	-3.6	-1	-12	1	0.3	.	.	.	-12	-2

Compound activity: PubChem BioAssay, several laboratories
